Bfl-1 A1 inh – inhibitors of the anti-apoptotic protein A1, read as caspase activation. 330,000 tested, 0.066% active. MEF A1-2A-BIM cells, Caspase-Glo 3/7 luminescence, 3 h; percent of clofoctol response, vehicle zero. caspase activation, % (no concentration beside the values);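 active means over half of replicate activation scores above 10%, or exactly half above 10 with the replicate mean above 10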;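 further: wells of about 30 µL received 50 nL stock; many hits fall short of the cut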
Ecoli growth – blocks Escherichia coli growth; OD600, 23 h; active compounds read low; OD600 absorbance (no concentration beside the values); 330,000 tested, 0.21% active; AID 1053175;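 active means OD600 absorbance below the run mean of sample wells minus 3.6 SD, in any replicate, cut at about 0.56 in these data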;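 further: stock transfer was 300 nL into about 60 µL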
UCH37 DUB inh – blocks the human deubiquitinase UCH37; Q9Y5K5; purified proteasome/UCH37, Ub-AMC cleavage fluorescence; inhibition, % (concentration not given with the values); 330,000 tested, 0.33% active; AID 588478;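 active means mean of two replicates above 20%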;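 further: 0% = compound-free wells with enzyme and 100% = wells lacking proteasome; stock transfer was 100 nL into about 20 µL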
Target sequence (Q9Y5K5 whole entry, looked up): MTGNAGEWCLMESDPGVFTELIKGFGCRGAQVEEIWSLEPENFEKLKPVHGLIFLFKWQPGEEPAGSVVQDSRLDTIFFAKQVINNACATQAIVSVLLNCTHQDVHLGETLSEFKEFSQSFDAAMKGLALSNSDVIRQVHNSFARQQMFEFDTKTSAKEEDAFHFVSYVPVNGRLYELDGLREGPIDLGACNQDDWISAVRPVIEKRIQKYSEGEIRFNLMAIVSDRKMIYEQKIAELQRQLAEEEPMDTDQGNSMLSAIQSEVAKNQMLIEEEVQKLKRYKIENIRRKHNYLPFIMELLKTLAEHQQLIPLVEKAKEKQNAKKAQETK
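system = Proteasome-associated human UCH37 deubiquitinase | amount = 0.15 nM proteasome as dispensed | medium = pH 7.4 Tris-HCl (50 mM) with ovalbumin, ATP-MgCl2, DTT | incubation = 30 min preincubation with enzyme, 25 min cleavage at room temperature | detection = AMC fluorescence 355/460 nm | read-out basis = percent inhibition | controls = no-proteasome and no-compound wells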
FGF22 binding – binders of recombinant human FGF22 by thermal shift; SYPRO orange fluorescence; percent of sucrose octasulfate shift, DMSO zero; calls only at 9.99 µM; 340,000 tested, 1.5% active; AID 651658;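 active means melting point raised past a set limit in the mean and every replicate; three in four hits are not shown here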
Ecoli rRNA inh – inhibitors of bacterial rRNA selective over humanized ribosomes | 350,000 tested, 1.6% active | AID 720706 | E. coli WT GFP vs humanized-ribosome RFP mutants, fluorescence, 24 h; active compounds read low; DMSO median 0, no signal -100 | GFP signal change (wild-type ribosome), % (concentration not given with the values);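 active means significant combined selectivity score with lowered wild-type GFP, culture density cut under 30%, mutant RFP and density less affected; inactive means any of these conditions unmet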; further: one replicate is shown; some compounds called inactive have numbers as strong as hits
Beta cell apopt – beta cell apoptosis inhibition. AID 435005. protection from apoptosis, % (concentration not given with the values). INS-1E cytokine-induced death, ATP luminescence, 48 h; percent of positive-control rescue, neutral wells zero. 300,000 tested, 0.8% active;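 active means all replicates at 75% or more, or half of them and the mean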;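 further: 0% = cytokine-treated negative control wells and 100% = positive control rescue; higher means more ATP so stronger rescue from cytokine killing; wells of about 40 µL received 100 nL stock; the first replicate is given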
T cruzi repl – blocks replication of Trypanosoma cruzi; AID 1885; 300,000 tested, 1.4% active; inhibition, % (no concentration beside the values); T. cruzi beta-gal in NIH3T3, luminescence, 90 h;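 active means mean inhibition across valid replicates above about 55%, limit read from the data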;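 further: signal also drops with host cell toxicity which is not excluded here; 0% = plate median of DMSO wells and 100% = zero luminescence signal; higher percent means less beta-gal luminescence so fewer parasites; stock transfer was 50 nL into about 50 µL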
AF4-AF9 inh – inhibitors of human MLL-AF4/AF9 interaction. P42568. AlphaScreen, biotin-AF4 peptide binding to FLAG-AF9. inhibition, % at 10 µM. 350,000 tested, 0.47% active;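 active means every replicate reaching a set inhibition limit, whatever the replicate mean, cut at about 25% in these data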;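 further: 0% = plate neutral control median and 100% = total signal loss; the record names both 10 and 1 µM as test concentration; the first replicate is given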
Target sequence (P42568 whole entry, looked up): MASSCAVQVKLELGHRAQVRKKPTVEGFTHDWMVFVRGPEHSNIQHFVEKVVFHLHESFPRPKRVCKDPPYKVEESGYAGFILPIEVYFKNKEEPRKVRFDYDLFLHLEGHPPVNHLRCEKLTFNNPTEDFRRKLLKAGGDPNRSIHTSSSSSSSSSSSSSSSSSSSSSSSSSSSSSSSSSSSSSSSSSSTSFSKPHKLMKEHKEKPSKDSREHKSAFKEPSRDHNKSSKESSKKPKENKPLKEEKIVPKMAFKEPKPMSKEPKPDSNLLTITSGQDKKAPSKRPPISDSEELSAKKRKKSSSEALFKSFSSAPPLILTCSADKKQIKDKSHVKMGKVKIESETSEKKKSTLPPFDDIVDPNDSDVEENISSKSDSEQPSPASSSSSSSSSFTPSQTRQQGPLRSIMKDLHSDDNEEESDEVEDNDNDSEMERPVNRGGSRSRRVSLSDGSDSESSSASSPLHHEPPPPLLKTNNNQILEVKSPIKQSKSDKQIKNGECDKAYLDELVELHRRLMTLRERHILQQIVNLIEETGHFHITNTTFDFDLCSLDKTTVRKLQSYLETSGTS
Ecoli rRNA inh OD600 – further read-out of Ecoli rRNA inh, marked with its call; OD600 change, %; measured here: OD600 growth;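 optical density of the mix in the first replicate; 0 = DMSO median and -100 = no signal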
Ecoli rRNA inh RFP – also measured in Ecoli rRNA inh; calls as there; RFP signal change, %; measured here: RFP humanized mutant strains;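 first replicate; 0 = DMSO median and -100 = no signal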
The depositor's hits bear a star; i = inactive; nt = no result given.

Values run as follows: AF4-AF9 inh	Bfl-1 A1 inh	Ecoli rRNA inh OD600	Beta cell apopt	Ecoli rRNA inh	FGF22 binding	T cruzi repl	Ecoli growth	Ecoli rRNA inh RFP	UCH37 DUB inh
[1] CN(CC(=O)Nc1ccc(Cl)c(C(F)(F)F)c1)C(=O)c1cc(-c2ccncc2)nc2ccccc12
  -4.2	-0.4	-27.9	6.8	-18.4	nt	50.0	0.713	8.9	0.9
[2] COC(=O)[C@@H]1CCCN1C(=O)[C@@H](NC(=O)OC(C)(C)C)C(C)C
  -1.3	1.6	10.6	-8.7	13.0	i	2.4	nt	3.1	2.4
[3] COc1ccc(CN2CCCC(N3CCN(c4cccc(Cl)c4)CC3)C2)cc1OC (centres undefined)
  3.6	2.1	-0.6	15.6	7.7	i	55.7*	0.671	3.2	1.9
[4] COc1ccc(C2/C=C\CN(C(=O)c3ccccc3)CC(=O)N2Cc2cccc(F)c2)cc1 (centres undefined)
  0.4	nt	-17.6	nt	-8.3	i	nt	0.72	-1.5	3.0
[5] O=C(Nc1ccc(-c2n[nH]c(=S)o2)cc1)c1ccccc1
  6.4	-5.9	2.1	-3.9	2.3	i	-7.0	0.652	-1.1	7.8
[6] N=C1C(c2ccccc2)=C(O)CN1CCO
  3.1	0.5	20.7	-4.0	27.4	i	-21.7	0.693	1.3	-2.1
[7] Clc1ccccc1CSC1=NCCN1
  0.0	0.2	12.4	3.8	12.7	i	6.4	0.713	4.1	4.4
[8] O=C(COc1ccccc1)Nc1ccncc1
  9.2	-1.4	12.4	-0.4	19.0	nt	-12.2	0.588	2.4	2.7
[9] C=CCN1C(=O)C(O)(CC(=O)c2ccccn2)c2ccccc21 (centres undefined)
  0.1	0.5	17.3	nt	8.1	i	1.5	0.683	0.3	4.8
[10] CC(C)OCCOc1ccc2oc(-c3ccco3)cc(=O)c2c1
  1.1	-0.7	-6.8	-2.2	-2.9	i	-2.2	0.629	-1.6	i
[11] O=C(Cc1ccc([N+](=O)[O-])cc1)NNC(=O)c1ccc2c(c1)OCO2
  -1.4	1.9	8.0	-4.1	1.4	i	nt	0.732	-0.5	1.3
[12] Cc1ccc(C)c(OCCC(=O)OCC(=O)NCCNC(=O)COC(=O)CCOc2cc(C)ccc2C)c1
  -1.5	-0.3	5.3	-2.5	5.0	i	0.7	0.627	1.5	0.7
[13] NS(=O)(=O)c1cccc(NC(=O)COC(=O)c2cc(Cl)ccc2[N+](=O)[O-])c1
  5.6	0.6	-7.8	0.9	-11.5	i	-14.7	0.699	0.7	5.5
[14] Cc1c(C(=O)O)sc2nc(SCC(=O)Nc3ccc(S(=O)(=O)NCCCC(=O)O)cc3)[nH]c(=O)c12
  -7.7	-0.6	nt	-5.6	nt	i	0.3	0.668	nt	7.7
[15] CC(=O)NCCNc1ccc([N+](=O)[O-])cn1
  nt	0.2	nt	-9.9	nt	nt	-11.2	0.731	nt	7.1
[16] COc1ccc(/C=C2\CCC(C3CCCC3)C2=O)c(OC)c1 (centres undefined)
  1.2	1.4	8.2	1.8	4.9	i	7.9	0.678	3.3	2.7
[17] COc1ccc(C#Cc2c(-c3ccsc3)oc3ccc(N4CCOCC4)cc23)cc1
  -3.9	0.9	17.6	-2.1	13.6	i	11.1	0.72	-1.1	-394.0
[18] COc1ccc(NC(=O)CSc2nnc(-c3ccc(F)cc3)o2)cn1
  0.4	-0.2	-14.8	-3.9	-3.5	i	nt	0.588	18.1	0.4
[19] Cc1ccc(C(=O)NC(=S)Nc2c(C)ccc3nsnc23)cc1
  nt	-0.4	nt	-5.3	nt	nt	-9.3	0.663	nt	2.5
[20] O=C(CC(=O)Nc1cccc(F)c1)Nc1cccc(F)c1
  -0.2	0.2	9.1	-8.2	5.4	i	5.4	0.597	3.7	3.7
[21] Cc1c2c(nc3nc4ccccc4n13)CC(C)(C)CC2=O
  nt	0.7	nt	5.8	nt	nt	3.9	0.694	nt	8.4
[22] CC(NC(=O)Cn1cc(Br)c([N+](=O)[O-])n1)c1ccccc1 (centres undefined)
  1.2	-0.2	14.4	0.4	-3.3	i	16.5	0.665	0.0	1.5
[23] c1ccc(-c2cn3nc(-c4ccccc4)c(-c4ccccc4)nc3n2)cc1
  nt	-1.2	nt	-0.1	nt	nt	15.9	0.728	nt	-201.2
[24] CCCN(Cc1cc2ccc(C)cc2[nH]c1=O)S(=O)(=O)c1ccccc1
  nt	-0.2	nt	-4.7	nt	nt	9.3	0.684	nt	3.5
[25] COc1ccc2c(c1)nc(SCC(=O)c1ccc(Br)s1)n2C
  11.7	0.0	3.5	0.5	0.5	i	14.8	0.69	3.0	-1.9
[26] Cc1c(C(=O)Nc2ccncc2)sc2nc(-c3ccc(F)cc3)cn12
  -2.5	-0.8	-4.2	37.2	2.8	i	29.1	0.755	-1.5	-3.4
[27] COc1ccccc1C(=O)Nc1ccnn1C1CCN(C/C=C/c2ccc(F)cc2)CC1
  3.5	0.5	-2.4	6.5	3.3	i	25.2	0.679	2.0	3.1
[28] COc1cccc(NC(=O)CN(C)C(=O)CC2CCCCC2)c1
  2.4	nt	-1.5	nt	-1.1	i	nt	0.675	-0.5	2.2
[29] Cc1cc(C)cc(NC(=O)C(NCCN2CCOCC2)c2ccccc2)c1 (centres undefined)
  1.7	0.3	0.6	-7.1	10.6	i	-4.1	0.701	1.1	0.1
[30] COC(=O)C(C(=O)NCC1CCCO1)C1CCCC1 (centres undefined)
  nt	0.6	nt	-10.2	nt	nt	-3.6	0.726	nt	0.8
[31] O=C(NCc1cccs1)C1CCCCC1
  nt	-0.4	10.4	-1.0	0.4	nt	11.5	0.67	-0.1	-0.1
[32] O=C(Cc1ccccc1)NN1C(=O)/C(=C/c2ccc(C(=O)O)cc2)SC1=S
  0.6	-0.1	0.9	-3.5	-2.6	i	-4.1	0.715	-0.5	9.2
[33] CC1CC(C)CN(C(=O)c2ccc(C#N)cc2)C1 (centres undefined)
  -0.4	-1.3	6.5	-4.0	8.8	i	-10.7	0.696	2.2	-1.9
[34] O=C(NCc1nnc(SCC(=O)N2CCOCC2)o1)c1c(F)cccc1F
  0.1	-0.3	15.8	-2.5	20.5	i	-1.9	0.706	2.3	1.6
[35] COCCNC(=O)CCc1nc(-c2ccccc2)no1
  nt	0.0	nt	-8.1	nt	nt	-15.1	0.728	nt	2.4
[36] COc1ccc(NC(=O)Cn2nnc(C(=O)NCc3cccc(OC)c3)c2N)cc1
  nt	0.6	nt	nt	nt	nt	4.1	0.714	nt	0.7
[37] Cc1c(O)nc(SC2CC(=O)N(c3cc(Cl)cc(Cl)c3)C2=O)[nH]c1=O (centres undefined)
  -2.3	0.9	-4.0	0.3	-6.9	i	-7.9	0.684	2.0	5.0
[38] Cc1ccc(S(=O)(=O)NCCC(=O)NCCOc2ccccc2)cc1
  1.5	nt	9.8	nt	6.2	i	nt	0.673	0.3	4.2
[39] CCCCC(CCC(=O)NNC(=O)Cc1ccccc1)C(=O)O (centres undefined)
  1.3	-0.7	5.9	-4.8	7.7	i	-0.8	0.703	-5.7	2.2
[40] CCC(C)(C)NC(=O)C(c1ccc(OC)cc1)N(Cc1ccccc1)C(=O)CCC(=O)Nc1cc(C)on1 (centres undefined)
  -2.2	1.1	16.9	2.3	4.3	i	17.1	0.697	-0.1	-0.4
[41] COc1ccccc1C1CC(=O)Oc2cc(C)c(Cl)cc21 (centres undefined)
  -1.7	nt	-8.5*	nt	-20.9*	i	nt	0.725	-1.6*	2.7
[42] COC(=O)N1C(=O)[C@@](c2ccc(OC)cc2)(C(C)C)N1C(=O)OC
  nt	1.2	5.6	-8.0	7.0	nt	0.4	nt	3.1	3.1
[43] CCOc1ccc(NS(=O)(=O)N(C)C)cc1
  nt	0.6	nt	-1.1	nt	nt	2.2	0.739	nt	1.1
[44] O=C(Nc1cccc(S(=O)(=O)N2CCCCCC2)c1)c1ccc(Cl)nc1
  2.8	0.7	-27.5	-2.6	-10.6	i	nt	0.703	16.2	4.4
[45] O=C(CNC(=O)Cc1cccc2ccccc12)NCc1ccccc1F
  -4.4	1.8	3.0	nt	-0.2	i	-0.8	0.662	2.4	-0.1
[46] O=C1OCCC1=Cc1ccccc1
  -2.4	nt	11.2	nt	7.3	i	nt	0.682	-2.8	1.0
[47] COc1ccc(CNC(=O)COC(=O)c2cccs2)cc1
  3.9	0.3	5.3	-2.7	-1.5	i	-7.9	0.632	-2.6	1.9
[48] O=C(NC1CCN(Cc2ccccc2)CC1)c1ccc(Oc2cc(Cl)cc(Cl)c2)o1
  -1.2	-2.3	-16.3	-1.2	-1.2	i	44.9	0.683	7.7	3.9
[49] COc1ccccc1-c1c(C)[nH]n2c(=O)c(Cc3ccccc3)c(C)nc12
  -0.1	0.3	-8.8	2.6	-8.5	i	9.8	0.622	-12.1	-4.7
[50] C[C@]12C(=O)N(c3ccccc3)C(=O)N1[C@@H]1c3ccccc3OC[C@@H]1[C@H]2c1ccccc1
  -0.7	-0.3	-2.4	3.2	8.2	i	0.8	0.751	-2.2	2.8
[51] CC1=C(C(=O)c2ccccc2)C(c2ccc(OC(F)F)cc2)NC(=S)N1 (centres undefined)
  4.0	1.6	-32.4	-12.0	-23.0	i	6.6	0.727	-2.1	7.4
[52] C/C=C1\COC(C(=O)NCCN2CCCC2)(C(F)(F)F)C=C1C=C1CCCCC1 (centres undefined)
  9.9	0.4	-46.4	9.2	-22.3	i	41.9	nt	10.3	2.6
[53] Cc1cc(C(=O)CN2C(=O)C3CC=CCC3C2=O)c(C)n1-c1ccccc1 (centres undefined)
  nt	1.0	nt	1.8	nt	nt	0.3	0.658	nt	-1.4
[54] CS(=O)(=O)c1ccccc1-c1nnc(NC(=O)CCS(=O)(=O)c2ccc(Cl)cc2)o1
  -13.5	0.9	-5.3	nt	3.3	i	-5.4	0.672	-0.6	-3.9
[55] CC(Sc1nnc(COc2ccc3ccccc3c2)n1C)C(=O)O (centres undefined)
  nt	-0.9	nt	1.6	nt	nt	-3.4	0.736	nt	4.6

Source: PubChem (several laboratories)

Not all compounds are listed; the hit share may differ from the screen's.
